Screening results deposited in PubChem BioAssay by National Center for Advancing Translational Sciences (NCATS).
VACV Venus inh – vaccinia inhibition (Venus reporter) | Vaccinia virus Venus reporter expression, fluorescence | Potency, µM (highest dose often 36.5 µM), for the others: at the highest dose activity change, negative = inhibition, actives largely listed as inhibitors | 0.46% of 330,000 active | AID 720580; active means well fitted inhibition curve with a large enough effect; inconclusive means small, poorly fitted or top-dose-only effect; inactive means no such curve, though single readings can be large or run the other way; tested in A549 cells; further: nearly all actives have a fitted effect of over 30% in size; inactives centre near -10
Vaccinia mCherry – vaccinia inhibition (mCherry reporter). AID 720579. 0.63% of 310,000 active. Vaccinia virus mCherry reporter infection, fluorescence; about a quarter of the inactives have no number. Potency, µM (highest dose often 36.5 µM), inactives show top-dose activity change, negative = inhibition, hits mostly inhibitors; active = well fitted inhibition curve with a large enough effect; inconclusive = small, poorly fitted or top-dose-only effect; inactive = no such curve, though single readings can be large or run the other way; tested in A549 cells; further: nearly all actives have a fitted effect of over 35% in size; inactives centre near -10
Numbers without * were called inactive; i = inactive; ? = inconclusive; nt = not tested or not shown; & = joins results of further samples; [ ] = another dose, or the depositor's remark. On the % scale 0 is the no-effect control and ±100 the full control effect; potency means the concentration at half of the fitted maximal effect.

SMILES	VACV Venus inh	Vaccinia mCherry
COC(=O)C1=C(c2cc3ccccc3o2)C[C@@H]2CC[C@H]1N2C(=O)NCc1ccc(F)cc1	?	i
CN(C)c1ccc(NC(=O)/C=C/c2c(Cl)cccc2Cl)cc1	6%	28µM*
COc1ccc(C2CC(=O)C(C3NCCc4ccccc43)=C(O)C2n2cncn2)cc1 (configuration not stated)	-3%	0%
Cc1c(NC(=O)c2ccccc2)cccc1[N+](=O)[O-]	-17%	-14%
CCCCn1c(=O)c(CCC(=O)OCC(=O)Nc2ccc(F)c(Cl)c2)nc2ccccc21	-15%	i
Clc1ccc(C2[C@H]3CN(Cc4cccnc4)[C@H](c4ccccc4)C34CC2(c2ccccc2)C4)cn1 (some centres not stated)	-29%	-20%
CCc1ccccc1NC1c2ccccc2C(=O)N1c1cc(C)ccn1 (configuration not stated)	8%	i
O=C(/C=C\c1ccco1)Oc1cccc2cccnc12	?	?
COC(=O)C1=C(c2cccc(NC(C)=O)c2)C[C@@H]2CC[C@H]1N2C	-2%	i
Cc1ccc(N2CC(NC(=O)/C=C\c3ccc4c(c3)OCO4)CC2=O)cc1C (configuration not stated)	-3%[7.34 µM]	-2%[7.34 µM]
Cc1ccc2c(CN3CCCc4ccccc43)cc(=O)oc2c1C	-10%	-23%
CCn1c(=N)c(C(=O)NCCCOC)cc2c(=O)n3cccc(C)c3nc21	-2%	i
O=C(NCc1ccncc1)C(=O)NCC1OCCCN1S(=O)(=O)c1ccc(F)cc1 (configuration not stated)	-10%	-1%
Cc1cc[n+](CCC2CCCCC2)c2ccccc12	-38%	?
Cc1ccc(SCC(=O)N2CCN(c3ccc(F)cc3)CC2)cc1	0%	-1%
Cc1cccc(N2C(=O)CCC2=O)n1	-1%	2%
Cc1cc(C)n(CC(=O)N/N=C/c2cc([N+](=O)[O-])ccc2O)n1	-25%	?
Cc1cc2c(cc1C)NC1(C[C@H]3CCC(=O)N4CC[C@@H](C1)[C@@H]34)C(=NC(C)(C)CC(C)(C)C)N2 (some centres not stated)	?	-28%&-18%
Cc1csc(N/N=C/c2ccccn2)n1	?	?
CC(=O)Nc1ccc(N(CC(=O)NC2CCCC2)C(=O)CCC(=O)Nc2cc(C)on2)cc1	-2%	-9%
COc1ccc2c(c1)c(N1CCCC1=O)c(C(=O)Nc1ccc(Cl)cc1C)n2C	0%	-8%
Cc1cc(C)c(C)c(S(=O)(=O)NCC(=O)O)c1C	2%	i
CCOc1ccc(-c2ccc(NS(=O)(=O)c3ccc(C)cc3)cc2)nn1	-5%	-9%
FC(F)(F)c1ccccc1Cc1c(-c2cccc(Br)c2)nc2c3ccccc3ccn12	7%	37%[activator]
Cc1ccc(N2CC(C(=O)OCC(=O)c3ccc(C)c([N+](=O)[O-])c3)CC2=O)cc1 (configuration not stated)	0%	0%
O=C1OC(c2ccccc2)=C/C1=C/c1cccs1	-2%	-1%
O=C1CCCC2=C1C(c1ccncc1)c1c(nc(SCc3ccccc3)[nH]c1=O)N2 (configuration not stated)	-13%	-15%
Cc1ccc(Cn2ncc3c(NN)ncnc32)cc1	-3%	-9%
O=C(NCCCN1CCN(c2ccc(F)cc2)CC1)c1cccc(N2CCCC2=O)c1	-25%	nt
CN1CCN(C2CN(Cc3ccc([N+](=O)[O-])cc3)S(=O)(=O)C2)CC1 (configuration not stated)	-17%	-10%
CCc1ccc(-n2nc(CO)c(C(=O)NCc3ccccc3OC)n2)cc1	-10%	-3%
C=C1c2ccccc2O[C@H](C(=O)OCC)[C@H]1OC	-7%	i
CC1(NC(=O)Nc2ccccc2)CCS(=O)(=O)C1 (configuration not stated)	-25%	-4%
COCc1cc(C2SCC(=O)Nc3c2c(=O)[nH]n3C(C)C)ccc1OC (configuration not stated)	-19%	nt
O=C(Nc1nnc(SCc2ccc(F)cc2)s1)c1cnccn1	-2%	-3%
COc1ccc(CN2C(=O)CN(S(C)(=O)=O)CC2(C)C(=O)NCc2ccccc2)cc1OC (configuration not stated)	-16%	?
FC(F)(F)c1ccccc1NC1=NCCC1	-4%	-8%
COC(=O)CSc1nnc(-c2ccc(S(=O)(=O)N3CCCC3)cc2)o1	-4%	6%
Cc1sc2nc(-c3ccccc3F)oc(=O)c2c1C	-4%	-10%
CC1=C/C(=N\OS(=O)(=O)c2ccccc2)C(C(C)C)=CC1=O	-2%	-20%
CC(NC(=O)CN1C(=O)NC(Cc2ccccc2)(Cc2ccccc2)C1=O)C12CC3CC(CC(C3)C1)C2 (configuration not stated)	?	10µM*
Cc1cc(C(=O)CSc2nnc(N)s2)c(C)n1Cc1ccco1	-11%	-6%
O=C(/C=C/c1ccccc1)NC1CC2CCC1C2 (configuration not stated)	-18%	4%
Cc1c(C(=O)N2CCC3(CC2)OCCO3)oc2ccc(S(=O)(=O)N3CCCCC3)cc12	-13%	18%
FC(F)(F)c1cccc(Sc2nc(-c3ccccc3)nnc2C(F)(F)F)c1	-8%	nt
COc1ccc(S(=O)(=O)Nc2ccc3c(c2)C(=O)N([C@H](C)CO)C[C@H](C)[C@@H](CN(C)S(C)(=O)=O)O3)cc1	?	?
Cc1cccc(NC(=O)CSc2nnc(NC(=O)C3CCC3)s2)c1	-3%	-3%
CC(=O)c1sc(NC(=O)COc2ccc(Br)cc2)nc1C	-3%	i
Cc1ccc(NC(=O)c2nnn(-c3ccc4c(c3)OCCO4)c2N)cc1	-10%	-20%
O=C1CCCN1c1ccc(S(=O)(=O)N2CCN(c3ccccc3)CC2)cc1	5%	-2%
CC(C)N(C(=O)Cn1cc(SCC(=O)Nc2ccccc2F)c2ccccc21)C(C)C	-11%	-7%
Cc1cc(O)ccc1-c1ccc2nncn2c1	4%	9%
CCCCNc1c([N+](=O)[O-])c(=O)n(C)c2ccccc12	-13%	-25%
CCCCOc1ccc(C(=O)Nc2ccc(-c3cc4ccccc4oc3=O)cc2)cc1	-13%	-12%
COCC(C)n1c(C)cc(C(=O)COC(=O)c2c(NC(C)=O)sc(C)c2C)c1C (configuration not stated)	-10%	-17%
COc1cccc(N2CCN(C(=O)c3cc4c(=O)oc5ccc(C)cc5c4s3)CC2)c1	-8%	-1%
Cc1cc(NC(=O)CN2C(=O)NC3(CCCCC3C)C2=O)no1 (configuration not stated)	-14%	-8%
O=C1Nc2ccc(Br)cc2C1(O)Cc1ccccn1 (configuration not stated)	-5%	-15%
COc1ccccc1OCCCCNCCO	-1%	-12%
CCN(CC)C(=O)Cn1c(=O)n(CCCC(=O)NCc2ccc3c(c2)OCO3)c(=O)c2sccc21	8%	-3%

Further compounds
SMILES	VACV Venus inh	Vaccinia mCherry
O=C(NCC1([N+](=O)[O-])CN(C(=O)c2ccccc2)CN(C(=O)c2ccccc2)C1)c1ccccc1	2%	-4%
COc1ccc(/C=N/Nc2nn3cnnc3c3ccccc23)cc1	-16%	i
O=C(NCc1ccc2c(c1)OCO2)c1ccc(N2CCCCCC2)c([N+](=O)[O-])c1	-16%	i
O=C(Nc1ccc2c(c1)OCCO2)c1ccco1	-9%	-1%
CCCCN(C)C(=O)CCC(=O)Nc1ccc2nc(N3CCN(C)CC3)cc(C)c2c1	-5%	?
CN[C@H](C(=O)NC[C@H]1O[C@@H](n2cnc3c(N)ncnc32)[C@H](O)[C@@H]1O)[C@@H](C)OCc1ccccc1	-9%	i
CCn1c(/C=C/N(C(C)=O)c2ccccc2)[n+](CCCS(=O)(=O)[O-])c2cc(Cl)c(Cl)cc21	-8%	i
Cc1ccc(N=Cc2cc(Br)cc(Cl)c2O)cc1	-2%	-1%
COc1ccc(-c2cn(Cc3ccc(C(N)=O)cc3)c(-c3ccc(Cl)nc3)n2)cc1	-17%	-9%
Cc1cccc(CN2CCN(C(=O)CCl)CC2)c1	-9%	i
CCOC(=O)CN1C(=O)S/C(=C/C=C/c2ccc(N(C)C)cc2)C1=O	229%[activator]	-12%
COc1cc(Cn2c(=O)sc3ccccc32)ccc1OCCC(C)C	-15%	-11%
O=C(O)C/C(=C\c1cc(Cl)c2c(c1)OCO2)c1nc2ccccc2s1	-1%	-4%
C[C@@H]1O[C@@H](OC[C@H]2O[C@@H](Oc3c(-c4ccc(O)c(O)c4)oc4cc(O)cc(O)c4c3=O)[C@H](O)[C@@H](O)[C@@H]2O)[C@H](O)[C@H](O)[C@H]1O	-5%	i
CN1CCN(c2nc(-c3ccccc3O)nc3ccccc23)CC1	-11%	i
CCc1ccc(CSc2nc(-c3ccc(OC)cc3)nc3c2Cc2c(CO)cnc(C)c2O3)cc1	-10%	-5%
CCCCC1(CC)SCC(=O)NC1=O (configuration not stated)	-9%	i
C[C@@H](CSc1ccccc1)CN1CC[C@H](C(C)(C)C)CCC1=O	-17%&-22%	-7%
CC1CCCCC1NC(=O)C1CCC(CNc2c(N3CCCCC3)c(=O)c2=O)CC1 (configuration not stated)	-12%	8%
COc1ccc(CC(=O)NCC2CCCN(Cc3cccc(SC)c3)C2)cc1 (configuration not stated)	-11%	-6%
C=CCOc1ccc(C2C(C(=O)c3cccs3)=C(O)C(=O)N2c2nnc(C)s2)cc1 (configuration not stated)	30%	-12%
Cc1cccc(-n2nc(C)c3c2NC(=O)CSC3c2ccccc2Cl)c1 (configuration not stated)	-3%	59%[activator]
CN1CCC(N(C)c2ncnc3ccc(Br)cc23)CC1	-14%	nt
CNC(=S)N1N=C2c3ccccc3CCC2C1c1ccccc1Cl (configuration not stated)	0%	-1%
CCOC(=O)c1[nH]c(C)c(C(=O)NCCC2=CCCCC2)c1C	-5%	nt
CC(C)c1nc2oc3c(=O)[nH]cnc3c2c2c1COC(C)(C)C2	-11%	-20%
O=C(N/N=C/c1ccco1)c1cc(=O)[nH]c2ccccc12	0%	i
O=C(Nc1ccc([N+](=O)[O-])cc1Br)c1cccnc1	-4%	-11%
C/C(N)=C(/C#N)C(=O)COC(=O)CCS(=O)(=O)c1ccccc1	4%	-11%
O=C(Nc1ccc(Br)cc1F)c1ccc2c(c1)OCCO2	-6%	-8%
CCCCC[C@@H](C)N1C[C@H](COCc2ccccc2)Oc2cc(N3CC[C@H](N(C)C)C3)ccc2S1(=O)=O	?	?
O=C1C2C3C=CC(C4CC34)C2C(=O)N1/N=C/c1ccc([N+](=O)[O-])s1 (configuration not stated)	-6%	i
N=c1oc2ccccc2cc1C(=O)Nc1ccccc1	-1%	-13%
CC(OC(=O)c1ccccn1)C(=O)Nc1nc(-c2ccc(F)c(F)c2)cs1 (configuration not stated)	-1%	i
COc1cccc(CN2CCC2(C)C(=O)Nc2cccc(NS(C)(=O)=O)c2)c1OC (configuration not stated)	-4%	-7%
O=S(=O)(NCc1ccccc1)c1ccccc1NCCc1ccccc1	-6%	i
COc1ccccc1-c1nnc(SC(C)C(=O)NCC2CCCO2)n1C (configuration not stated)	4%	?
CC(C)C[C@H](NC(=O)N1CCN(c2ccccc2)CC1)C(=O)O	-13%	-9%
CC1CCN(S(=O)(=O)c2ccc(NC(=O)c3ccncc3)cc2)CC1	-23%	-29%
COc1ccc(/C=C/C(=O)NC2=NCCS2)cc1OC	-14%	i
Cc1ccc(-c2cc(C(=O)Nc3ccc4c(c3)OCCO4)c3ccccc3n2)cc1	-12%	nt
CCc1ccc(NC(=O)Cn2nnc(-c3ccccc3N)n2)cc1	-10%	i
CCCn1nnnc1SCC(=O)Nc1sc(C)c(C)c1C#N	-6%	-16%
O=c1c2ccccc2nc(CNCc2ccco2)n1-c1ccc(F)cc1	5%	-1%
CC1(C(=O)Nc2ccc3c(c2)OCCO3)CCN1C(=O)c1cccc(F)c1 (configuration not stated)	-3%	37%[activator]

Entries above that contain an aryl thioether with sulfur outside any ring (13):
SMILES	VACV Venus inh	Vaccinia mCherry
Cc1ccc(SCC(=O)N2CCN(c3ccc(F)cc3)CC2)cc1	0%	-1%
O=C1CCCC2=C1C(c1ccncc1)c1c(nc(SCc3ccccc3)[nH]c1=O)N2 (configuration not stated)	-13%	-15%
O=C(Nc1nnc(SCc2ccc(F)cc2)s1)c1cnccn1	-2%	-3%
COC(=O)CSc1nnc(-c2ccc(S(=O)(=O)N3CCCC3)cc2)o1	-4%	6%
Cc1cc(C(=O)CSc2nnc(N)s2)c(C)n1Cc1ccco1	-11%	-6%
FC(F)(F)c1cccc(Sc2nc(-c3ccccc3)nnc2C(F)(F)F)c1	-8%	nt
Cc1cccc(NC(=O)CSc2nnc(NC(=O)C3CCC3)s2)c1	-3%	-3%
CC(C)N(C(=O)Cn1cc(SCC(=O)Nc2ccccc2F)c2ccccc21)C(C)C	-11%	-7%
CCc1ccc(CSc2nc(-c3ccc(OC)cc3)nc3c2Cc2c(CO)cnc(C)c2O3)cc1	-10%	-5%
C[C@@H](CSc1ccccc1)CN1CC[C@H](C(C)(C)C)CCC1=O	-17%&-22%	-7%
COc1ccc(CC(=O)NCC2CCCN(Cc3cccc(SC)c3)C2)cc1 (configuration not stated)	-11%	-6%
COc1ccccc1-c1nnc(SC(C)C(=O)NCC2CCCO2)n1C (configuration not stated)	4%	?
CCCn1nnnc1SCC(=O)Nc1sc(C)c(C)c1C#N	-6%	-16%

Three of the compounds above, bar-delimited:
structure | VACV Venus inh | Vaccinia mCherry
CC(C)C[C@H](NC(=O)N1CCN(c2ccccc2)CC1)C(=O)O | -13% | -9%
CC1CCN(S(=O)(=O)c2ccc(NC(=O)c3ccncc3)cc2)CC1 | -23% | -29%
COc1ccc(/C=C/C(=O)NC2=NCCS2)cc1OC | -14% | i
